Compound activity deposited in PubChem BioAssay by National Center for Advancing Translational Sciences (NCATS).
VACV mCherry inh: vaccinia inhibition (mCherry reporter). Vaccinia virus mCherry reporter infection, fluorescence; about a quarter of the inactives have no number. Potency, µM (top dose mostly 36.5 µM), for the others: at the highest dose activity change, negative = inhibition, hits mostly inhibitors. 310,000 tested, 0.63% active; active = well fitted inhibition curve with a large enough effect; inconclusive = small, poorly fitted or top-dose-only effect; inactive = no such curve, though single readings can be large or run the other way; tested in A549 cells; note: nearly all actives have a fitted effect of over 35% in size; inactives centre near -10
VACV Venus inh: inhibitors of vaccinia virus (Venus reporter) | Vaccinia virus Venus reporter expression, fluorescence | Potency, µM (top dose mostly 36.5 µM), for inactives: at the top dose activity change, negative = inhibition, hits mostly inhibitors | 330,000 tested, 0.46% active | AID 720580; active means well fitted inhibition curve with a large enough effect; inconclusive means small, poorly fitted or top-dose-only effect; inactive means no such curve, though single readings can be large or run the other way; tested in A549 cells; note: nearly all actives have a fitted effect of over 30% in size; inactives centre near -10
* = called active by the depositor; i = inactive; ? = inconclusive; · = not tested or not shown; & = joins results of further samples; [ ] = dose if it differs, or a comment. % is set by controls: 0 for no effect and ±100 for the full control effect; potency is the fitted concentration of half-maximal effect. No enrichment for hits; overall some 0.86% were active at least once.

SMILES	VACV mCherry inh	VACV Venus inh
O=C(c1cnn2c(C(F)F)cc(-c3ccccc3)nc12)N1CCN(Cc2ccc3c(c2)OCO3)CC1	?	-27.5%
CCOc1cccc(CN2CCCC(C(=O)c3cccc(C(F)(F)F)c3)C2)c1O (configuration not stated)	-15.2%	-6.3%
CCn1c(C)c(C(C)=O)c(N2CCC(C(N)=O)CC2)nc1=S	i	-12.0%
CC(C)(C)C(=O)N1CCN(c2ccc(Cl)cc2[N+](=O)[O-])CC1	i	-9.5%
CC(=O)Oc1cccc(N2C(=O)C3CC=CCC3C2=O)c1 (configuration not stated)	-16.2%	-7.2%
O=C(NCC(F)(F)F)C1C(=O)Nc2ccccc2C(=O)N1C1CCCC1 (configuration not stated)	-4.7%	-6.5%
CCN(CC)CCN1c2ccccc2Sc2ccccc21	-15.4%	-24.4%
CCOc1ccccc1CNC(=O)c1ccc(Cn2c(=O)c3cccn3c3cccnc32)cc1	-20.2%	-17.7%
COc1ccc(CCNC(=O)CSc2nc3ccccc3nc2Cc2ccc(C)cc2)cc1OC	-21.5%	-13.1%
COc1cc(C2C(C(=O)/C=C/c3ccccc3)=C(O)C(=O)N2c2ccccn2)ccc1O (configuration not stated)	-5.0%	-8.2%
Cc1ccc(-n2c(C)cc(/C=N\NC(=O)CC(=O)NC(C)C)c2C)cc1	-15.0%	-15.0%
O=C(O)C1CCN(c2ccc(Cl)nn2)CC1	i	-3.8%
COC(=O)c1cc(CNC(=O)c2ccccn2)cc(NC(=O)c2ccccc2OC)c1	15.1%	39.8%[activator]
Cc1cccc(C)c1NC(=O)CNC(=O)C(C)N(C)CC(=O)Nc1ccc(F)cc1 (configuration not stated)	i	-11.5%
CCOc1ccc(Nc2c(S(=O)(=O)c3ccccc3)cnc3ccc(CC)cc23)cc1	i	-12.6%
CCC(CC)C(C(=O)NCc1ccccc1)N1CCN(c2cccc(C)c2C)CC1 (configuration not stated)	i	?
CCOc1ccc2nc(N3CCCC(C(=O)NCCCN4C(C)CCCC4C)C3)sc2c1 (configuration not stated)	i	-25.6%
CN(CC1CCCN(CCc2ccc(Cl)cc2)C1)C(=O)CC(F)(F)F (configuration not stated)	i	-21.5%
CCOCCCNC(=O)C1CCCN(S(=O)(=O)c2cccc3nsnc23)C1 (configuration not stated)	-12.2%	-18.1%
O=C(CSc1ncc(-c2ccc(F)cc2)n1Cc1ccco1)Nc1ccc2c(c1)OCO2	-18.5%	?

Some of the entries above, set out differently:
Order of values: VACV mCherry inh | VACV Venus inh
COC(=O)c1cc(CNC(=O)c2ccccn2)cc(NC(=O)c2ccccc2OC)c1
→ 15.1% | 39.8%[activator]
O=C(O)C1CCN(c2ccc(Cl)nn2)CC1
→ i | -3.8%
Cc1ccc(-n2c(C)cc(/C=N\NC(=O)CC(=O)NC(C)C)c2C)cc1
→ -15.0% | -15.0%
CCOc1ccc2nc(N3CCCC(C(=O)NCCCN4C(C)CCCC4C)C3)sc2c1 (configuration not stated)
→ i | -25.6%
CCC(CC)C(C(=O)NCc1ccccc1)N1CCN(c2cccc(C)c2C)CC1 (configuration not stated)
→ i | ?
O=C(CSc1ncc(-c2ccc(F)cc2)n1Cc1ccco1)Nc1ccc2c(c1)OCO2
→ -18.5% | ?
CN(CC1CCCN(CCc2ccc(Cl)cc2)C1)C(=O)CC(F)(F)F (configuration not stated)
→ i | -21.5%

New compounds follow.
SMILES	VACV mCherry inh	VACV Venus inh
CCc1ccc(-c2cc(C(=O)N/N=C/c3ccccn3)[nH]n2)cc1	-16.9%	-14.3%
Cc1ccc(S(=O)(=O)N2CCC(C(=O)NNC(=O)c3ccccc3O)CC2)cc1C	?	?
COc1ccccc1Cn1cc(C(=O)c2ccc(C)cc2)c(=O)c2cc3c(cc21)OCCO3	-18.3%	-16.8%
Cc1cc(-c2nnc(SCCC(=O)Nc3ccccc3)o2)no1	-20.2%	-9.9%
O=C(O)c1ccccc1NC(c1ccccc1)c1ccc(Cl)cc1 (configuration not stated)	-5.5%	-21.6%
COc1ccc(OC)c(/C=N/NC(=O)C(=O)N2CCCCCC2)c1	-12.3%	-5.4%
COc1cccc(C(=O)N2CCN(C(=O)C3COc4ccccc4O3)CC2)c1 (configuration not stated)	i	-9.3%
ON1C2CCCCC2N(O)C1c1ccccc1C(F)(F)F (configuration not stated)	·	-21.8%
COc1ccccc1-c1cnc(C(O)c2ccc(C)cc2)[nH]1 (configuration not stated)	38.5%[activator]	3.6%
CC(C)(C)[C@H]1C=C(C(=O)NCc2nc3ccccc3[nH]2)O[C@@H](OCCCCO)C1	-4.0%	-6.4%
Cc1ccc2nc(NC(=O)c3nc(SCc4ccccc4F)ncc3Cl)sc2c1	-9.6%	-2.2%
COc1ccc(C(=O)NC(=S)Nc2ccccc2N2CCCCC2)cc1[N+](=O)[O-]	i	-9.6%
CC1(C(=O)NS(=O)(=O)c2cccc(F)c2)CCN1C(=O)C1(c2ccc(Cl)cc2)CCC1 (configuration not stated)	-3.4%	-4.7%
CCN1C(C(=O)c2ccccc2)=C(OC(=O)C(C)C)c2ccccc2S1(=O)=O	-13.4%	-18.1%
CN(C)CCNC(=O)c1ccc2c(c1)N(Cc1ccccc1)C(=O)c1ccccc1S2(=O)=O	-16.2%	-19.5%
COc1ccc(C(=O)N(C)C2CCCCC2)cc1OC1CCN(C(C)C)CC1	-18.4%	-19.7%
COc1ccc(C2CC(=O)Nc3c2c(C)nn3-c2nncc(-c3ccccc3)n2)c(OC)c1OC (configuration not stated)	-16.7%	-22.2%
O=C(CSCc1ccccc1)N=Nc1c(O)[nH]c2ccccc12	-5.3%	-5.5%
Cc1ccc(S(=O)(=O)NN)c(C)c1N1CCCC1=O	-9.2%	-4.2%
CC1Cc2ccccc2N1C(=O)c1ccc2nccnc2c1 (configuration not stated)	i	-9.0%
O=C(NC(=S)Nc1ccc(Cl)cc1Cl)C1CC1	i	5.9%
CC(C)c1ccc(OCC(=O)NC(Cc2c[nH]c3ccccc23)C(=O)O)cc1 (configuration not stated)	-3.1%&-8.7%	-11.6%&-0.2%
Cn1nnnc1SCc1ccc(C(=O)Nc2ccc(Br)cc2)cc1	·	-15.0%
CC(=O)c1c(C)[nH]c(C(=O)Nc2nc(-c3ccccc3)c(C)s2)c1C	-10.1%	1.0%
O=C(NCc1ccc2c(c1)CCN2C(=O)c1ccc(Cl)cc1)c1ccco1	-13.3%	-8.4%
N#Cc1ccc(N2CCN(C(=O)c3cccs3)CC2)c(F)c1	i	-21.1%
CCN(CC)c1ccc(NC(=O)CN2CCN(CC(=O)Nc3ccc(F)cc3)CC2)cc1	·	-5.6%
CC(Sc1nnc(NC2CCCCC2)s1)C(=O)Nc1ccc2c(c1)C(=O)c1ccccc1C2=O (configuration not stated)	-18.0%	-12.0%
O=C(Cn1cnc2c(cnn2-c2ccccc2)c1=O)Nc1ccc(S(=O)(=O)N2CCOCC2)cc1	-12.0%	-20.7%
O=C(Nc1nc2n(n1)C(c1ccc(F)cc1)C=C(c1ccc(Cl)cc1)N2)c1ccc([N+](=O)[O-])cc1 (configuration not stated)	-29.2%	-28.6%
COc1ccc(C(=O)NC2CC3CCCC(C2)N3CC(C)C)cc1OC (configuration not stated)	-24.7%	-18.2%
CC(=O)Nc1ccc(C(=O)COC(=O)C2CC2C)c(F)c1 (configuration not stated)	-25.7%	-8.5%
Cc1nc2c(Cl)cccc2[nH]1	-8.8%	-8.7%
CC[C@]12c3[nH]c4cc(CCC(=O)N(C)C)ccc4c3CCN1C(=O)[C@@H](CC(=O)NCCc1ccccn1)C[C@@H]2C(=O)N1CCN(C(=O)c2ccco2)CC1	-3.1%	2.5%
CCCc1ccc(C2Sc3ccccc3NC3=C2C(=O)c2ccccc23)cc1 (configuration not stated)	-10.0%	-6.8%
Cc1ccc(-c2[nH]c(-c3ccc(C(=O)O)cc3)nc2-c2ccccc2)cc1	i	-4.1%
CCCn1c(=O)c(C(=O)Nc2ccccc2C)c(O)c2ccccc21	-3.6%	-17.0%
COc1ccc(OC)c(-c2csc(-c3cccs3)n2)c1	-22.6%	-3.8%
Cc1ccccc1NC(=O)Nc1ccc2c(c1)OCO2	-17.2%	-17.6%
Cc1cc(-c2nnc3n2CCCCC3)c(C)n1-c1ccccc1	?	?

Some of the entries so far, with bars between the fields.
structure | VACV mCherry inh | VACV Venus inh
COc1ccccc1Cn1cc(C(=O)c2ccc(C)cc2)c(=O)c2cc3c(cc21)OCCO3 | -18.3% | -16.8%
Cc1cc(-c2nnc(SCCC(=O)Nc3ccccc3)o2)no1 | -20.2% | -9.9%
O=C(O)c1ccccc1NC(c1ccccc1)c1ccc(Cl)cc1 (configuration not stated) | -5.5% | -21.6%

Next records:
SMILES	VACV mCherry inh	VACV Venus inh
COc1ccc(Cl)cc1NC(=O)COC(=O)CNC(=O)c1ccc([N+](=O)[O-])c(C)c1	i	-7.4%
N#C/C(=C\c1cn(Cc2ccccc2)c2ccccc12)C(=O)NCc1ccco1	-27.5%	-35.7%
O=C(Nc1ccc(-c2csc(Nc3cccc(C(F)(F)F)c3)n2)cc1)c1cc([N+](=O)[O-])cc(C(F)(F)F)c1	-29.5%	?
COc1ccc(CCn2c(N)c(S(=O)(=O)c3cccs3)c3nc4ccccc4nc32)cc1OC	i	-13.3%
COc1ccc2c(c1)c(=O)c(C(=O)c1ccccc1)cn2Cc1ccc(C)cc1	?	-24.2%
COc1ccc(-n2c(C)c(C)c3c(NCCCO)ncnc32)cc1	i	-23.3%
COc1ccc(OC)c(C2c3c(-c4ccc(Br)cc4)n[nH]c3C(=O)N2c2ccc(Cl)cc2)c1 (configuration not stated)	?	-23.6%
COCCNc1nc(-c2ccccc2C)nc2ccccc12	-2.5%	0.0%
O=C(Nc1cccc(Cl)c1N1CCCC1)c1ccc([N+](=O)[O-])o1	-11.0%	-10.6%
CCN(CC)S(=O)(=O)c1ccc(N2CCCC2)c(NC(=O)C2=COCCO2)c1	-25.5%	-13.1%

A second format for 3 compounds above.
Values run as follows: VACV mCherry inh, VACV Venus inh
COc1ccc2c(c1)c(=O)c(C(=O)c1ccccc1)cn2Cc1ccc(C)cc1
  ?, -24.2%
COc1ccc(-n2c(C)c(C)c3c(NCCCO)ncnc32)cc1
  i, -23.3%
COc1ccc(OC)c(C2c3c(-c4ccc(Br)cc4)n[nH]c3C(=O)N2c2ccc(Cl)cc2)c1 (configuration not stated)
  ?, -23.6%

Carrying on:
SMILES	VACV mCherry inh	VACV Venus inh
CC(OC(=O)c1cc[n+]([O-])cc1)C(=O)Nc1ccc(C(N)=O)cc1 (configuration not stated)	i	-5.4%
CCCCN(C(=O)c1ccc(S(=O)(=O)N2CCCC2)cc1)C1CCS(=O)(=O)C1 (configuration not stated)	-12.8%	-15.9%
CC(=O)NCCc1nc2ccccc2n1CCCCOc1ccc(Cl)cc1	-11.2%	-13.3%
CCNC(=O)C1CCCN(C(=O)c2ccco2)CC1 (configuration not stated)	-1.2%	-0.6%
c1nc(N2CCN(Cc3ccc4c(c3)OCO4)CC2)c2[nH]cnc2n1	5.1%	-10.3%
O=C(CN1C(=O)c2ccccc2C1=O)Nc1ccc(N2CCOCC2)cc1	-7.7%	-2.0%
COc1ccc(/C=C/c2nc(-c3ccccc3O)n(-c3ccccc3)n2)cc1OC	-16.8%	-8.3%
Cc1nnc(NC(=O)CSc2ncn(-c3ccccc3)n2)s1	i	10.8%
Cc1ccc(-c2nnc3n2N=C(c2ccccc2)CS3)cc1	-15.4%	-9.7%
Cc1ccc(C(=O)NCC(c2ccco2)N2CCOCC2)cc1 (configuration not stated)	i	-7.9%
CCCN1C(=O)/C(=C/c2cc(C)n(C)c2C)SC1=Nc1ccc(OC)cc1	·	?
CCOC(=O)N1N=C(c2ccccc2)CC1(O)C(F)(F)F (configuration not stated)	·	-14.1%
CC(C)C(=NO)c1ccccc1	-17.6%	-6.1%
CCOC(=O)CSc1nnc(COc2cccc(C)c2)o1	i	-9.3%
O=C(COc1ccccc1)Nc1ccccc1OCc1cc(=O)n2ccccc2n1	-1.3%	-10.7%
CCNc1cc(N2CCOCC2)nc(SC)n1	-7.1%	-5.3%
CC1=C(C(=O)N2CCN(c3cc(C)ccc3C)CC2)C2(CCCCC2)OC1=O	7.2%	-11.4%
O=C(O)CCc1nn2cc(-c3ccccc3)nc2[nH]c1=O	·	-9.9%
CCOc1cc(Cl)c(S(=O)(=O)NCc2ccccn2)cc1Cl	-24.1%	-19.4%
Cc1cccc(C(=O)N[C@@H]2c3ccccc3C[C@@H]2O)n1	-19.8%	-4.1%
Cn1c(=O)c2c(nc(NCc3ccccc3)n2CCCc2ccccc2)n(C)c1=O	·	-17.7%
Cc1cc(N2CCN(C)CC2)nc2ccc(NC(=S)N3CCN(c4cccc(Cl)c4)CC3)cc12	-7.7%	-17.1%
CN(C)c1ccc(C=NCCC2(O)CCOC(C)(C)C2)cc1 (configuration not stated)	-9.6%	-12.0%
CN(C(=O)CS(=O)(=O)c1cccc(Cl)c1)c1ccccc1	-2.2%	2.5%
COc1cccc(NC(=O)NCc2cccn2C)c1	·	-15.2%
O=C(OCC1COc2ccccc2O1)c1c(F)cccc1F (configuration not stated)	-22.3%	-12.3%
CCC(C)[C@H](NC(=O)[C@@H]1Cc2c([nH]c3ccccc23)C2c3ccccc3C(=O)N21)C(=O)NCC1CCCO1 (some centres not stated)	-8.7%	5.3%
COCCCC1CCN(C(=O)C2CCC(=O)N(C3CCCCCC3)C2)CC1 (configuration not stated)	-28.9%	-21.3%
CC(=O)c1cc(C#N)c(SCc2ccc(F)cc2)nc1C	·	-21.4%
CCS(=O)(=O)c1nc(S(=O)(=O)c2ccc(Cl)cc2)c(NCCCN2CCOCC2)s1	-12.1%[7.34 µM]	-8.9%[7.34 µM]
CC(C)CCNC(=O)C(c1cccnc1)N(CCc1ccccc1)C(=O)Cn1nnc2ccccc21 (configuration not stated)	-15.5%	-13.1%
